# Compound activity as filed in PubChem BioAssay.
# CSC inhib: cancer stem cell viability inhibitors, primary screen, luminescence. cancer stem cell-like cells viability. inhibition, % at 7.5 µM. hit rate 1.1% among 300,000;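 active means mean at 75% or more and at least half the replicates too; inconclusive means mean and replicates disagree; tested in HMLE shEcad cells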;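 further: 0% = median of negative and 100% = median of positive control wells; the first replicate is given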
# eIF4H FP inh: human eIF4H binding inhibitors, primary screen, translation initiation inhibitor project, biochemical, uHTS, fluorescence polarization; hit rate 0.94% among 290,000; AID 2012, 2009; inhibition, % at 35 µM; Eukaryotic translation initiation factor 4H (Homo sapiens), Q15056; eIF4H fluorescence polarization binding assay;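 active means 50% or more with normal probe brightness, or confirmed in later tests; inconclusive means above 50% with abnormal brightness, or retests that disagree; inactive means below 50% or failed in later tests; about a fifth of its hits are not listed in these tables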;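 further: calls also rest on retests at 20 µM and on dose response follow-up; 0% = protein and probe with vehicle and 100% = probe without protein; strong numbers were not always called active; many hits fall short of the cut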
# Yeast UUG start: modulators of yeast start codon fidelity, primary screen, whole organism, S. cerevisiae, single point, plate reader | S. cerevisiae UUG-firefly luciferase reporter, luminescence/redox ratio | activity score, % at 18.7 µM | hit rate 0.13% among 350,000;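 active means replicate mean at a twofold rise or more, about +100% in these data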;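 further: firefly luciferase made from a UUG start codon reports start codon fidelity; reporter light over untreated wells divided by growth signal over untreated wells; some hits fall short of that in this replicate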
# HIV Env fusion: inhibitors of HIV-1 Env-driven cell-cell fusion, primary screen, HeLa-JRFL effector, CEM21 target cells, luciferase; inhibition, % at 12.3 µM; hit rate 1.1% among 360,000; AID 651610, 2012;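 active means mean replicate inhibition score of at least 50 and every replicate individually at or above 50; inconclusive means only one of the two criteria met; inactive means mean below 50 and not all replicates reaching 50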;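 further: 0% = plate neutral controls and 100% = maraviroc near 300 nM; one replicate is shown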
# PABP FP inh: PABP poly(A) RNA binding inhibitors, primary screen, biochemical, fluorescence polarization, uHTS. inhibition, % at 35 µM. hit rate 1% among 290,000. AID 2014, 2009;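 active means 50% or more with normal probe brightness, or confirmed in later tests; inconclusive means above 50% with abnormal brightness, or retests that disagree; inactive means below 50% or failed in later tests; about a fifth of its hits are not listed in these tables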;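 further: calls also rest on retests at 20 µM and on dose response follow-up; controls were probe without protein and protein plus probe with vehicle; some compounds called inactive have numbers as strong as hits; many hits fall short of the cut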
# Target sequence (P11940 whole entry, looked up): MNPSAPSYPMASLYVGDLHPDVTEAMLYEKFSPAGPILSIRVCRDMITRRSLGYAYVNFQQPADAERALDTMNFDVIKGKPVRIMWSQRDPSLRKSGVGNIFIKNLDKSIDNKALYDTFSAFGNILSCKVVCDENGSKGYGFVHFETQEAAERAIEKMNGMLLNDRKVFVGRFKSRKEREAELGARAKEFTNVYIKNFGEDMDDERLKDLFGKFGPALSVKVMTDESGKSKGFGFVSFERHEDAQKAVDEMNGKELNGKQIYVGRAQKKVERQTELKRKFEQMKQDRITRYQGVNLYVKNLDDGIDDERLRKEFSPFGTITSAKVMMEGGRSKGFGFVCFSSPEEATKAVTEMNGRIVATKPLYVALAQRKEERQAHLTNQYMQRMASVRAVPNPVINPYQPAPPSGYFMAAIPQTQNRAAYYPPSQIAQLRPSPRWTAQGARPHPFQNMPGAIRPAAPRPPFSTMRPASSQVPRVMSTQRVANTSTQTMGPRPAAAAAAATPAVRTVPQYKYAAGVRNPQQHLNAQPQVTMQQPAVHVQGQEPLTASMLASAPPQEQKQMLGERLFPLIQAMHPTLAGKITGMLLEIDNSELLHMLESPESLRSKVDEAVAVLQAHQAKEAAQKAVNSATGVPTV
# MT1-MMP act inh: blockers of MT1-MMP proenzyme processing, primary screen, HT1080 RFP-PRO-GFP cells, GFP/RFP fluorescence; GFP/RFP ratio fluorescence, overnight; percent of plate control window, DMSO zero; GFP/RFP ratio change, % at 20 µM; hit rate 0.061% among 360,000;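 active means GFP/RFP ratio change of at least 30% with cell ATP level not reduced by more than half and red fluorescence within 50% of control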; further: strong numbers were not always called active
#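 Assay system: HT1080 cells carrying an RFP-PRO-GFP reporter | Dosing: Single dose of 20 µM compound, 1% DMSO final | Incubation: Cells overnight before dosing, compound overnight, 37 °C, 5% CO2 | Evaluation: GFP/RFP fluorescence ratio | Control set: DMSO and RFP-L50D-GFP cell wells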
# Rce1 inhib: yeast Rce1p protease inhibitors, primary screen, biochemical, fluorescence, cell-free homogeneous. yeast membranes, quenched prenylated peptide cleavage fluorescence. hit rate 0.27% among 290,000. AID 2563, 2010. CAAX prenyl protease 2 (Saccharomyces cerevisiae (strain ATCC 204508 / S288c)), Q03530. calls only;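 active means fall in fluorescence gain of 50% or more versus controls, with final raw signal at or below 3038400; inconclusive means same 50% fall but final raw signal above 3038400; inactive means fall in fluorescence gain under 50%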;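 further: plate controls were neutral control wells for no effect and wells lacking membranes for full effect; tested at 10 µM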
# MT1-MMP act inh RFP: further read-out of MT1-MMP act inh, marked with its call; RFP signal change, %; measured here: RFP expression control read;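 0 = vehicle wells; hits needed this value within 50% of zero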
# * marks the source's active call; other numbers are inactive results; i = inactive; u = inconclusive; x = no result given.
SMILES,CSC inhib,eIF4H FP inh,Yeast UUG start,HIV Env fusion,PABP FP inh,MT1-MMP act inh,MT1-MMP act inh RFP,Rce1 inhib
COCc1cc(C)nc(Oc2ccccc2)c1C#N,10,-11,-4,1,5,-2,1,i
CCOCC(=O)N(CC)Cc1ccccc1,-3,-2,x,-10,-4,2,3,i
CCCCNC(=O)c1cn(CC)c2ccc(S(=O)(=O)N3CCCCCC3)cc2c1=O,4,-6,-10,18,-5,0,3,i
Cc1ccc(Cn2ccc(NC(=O)CCSc3nc(-c4ccco4)cc(C(F)(F)F)n3)n2)cc1,-17,-9,-19,x,2,-19,-18,i
CC(C)c1ccc(NC(=O)CN2CCN(c3ccccn3)CC2)cc1,-1,-7,-1,0,6,1,1,i
Cc1ccc(NC(=O)c2ccc(Cl)c(S(=O)(=O)N3CCCC3)c2)nc1,-7,x,-7,-10,x,-2,-20,i
CCN1/C(=C\C(=S)Nc2ccccc2)Sc2ccccc21,17,-7,-36,-10,2,-9,-20,i
CCN(CC1CCCO1)C(=O)c1cc(COc2ccc(F)cc2F)on1 (centres undefined),-5,-3,-14,10,-6,1,3,i
O=C(COC(=O)c1ccc(Br)o1)NCc1ccc2c(c1)OCO2,2,x,-14,9,x,0,-1,x
COc1ccc(NS(=O)(=O)N2CCOCC2)cc1,-29,-1,-7,5,-1,-1,4,i
CC(=Nc1ccccc1)C1=C(O)CCCC1=O,-15,4,1,-10,9,-2,1,i
CCCC12CN3CCN(CC(C3)/C1=N\NC(=O)Nc1ccccc1)C2,24,-7,x,x,-6,3,4,i
FC(F)(F)c1cc(-c2ccco2)nc(-n2nc(C(F)(F)F)cc2C2CC2)n1,4,4,-17,19,11,-2,-4,i
Cc1noc(C)c1NC(=O)Nc1cccc2c1O[C@H](CN(C)C(=O)Nc1ccc(C(F)(F)F)cc1)[C@@H](C)CN([C@H](C)CO)C2=O,x,x,1,5,x,2,3,x
COc1cc(/C=N/NC(=O)c2ccc(Cl)cc2)ccc1OCC(=O)N1CC(C)OC(C)C1 (centres undefined),-11,-2,-4,-13,-15,1,2,i
COc1cccc(OC)c1C1=CC(=O)C[C@H](c2ccc3c(c2)OCO3)C1,41,x,-3,-3,x,0,0,x
CC(=O)N(C)c1ccc(NC(=O)Nc2ccc(C)c(C)c2)cc1,1,3,x,3,6,5,3,i
C[C@H](O)[C@@H]1CN2CCc3c([nH]c4ccccc34)[C@@H]2C[C@@H]1N(C)C(=S)Nc1ccc(C#N)cc1,x,x,-12,5,x,-3,1,x
Cc1ccc(CNC2=NCCCCC2)n1C,-7,9,11,1,8,3,10,i
CCOC(=O)c1ccc2c(c1)nc(COc1ccc(OC)cc1)n2CC,x,0,-20,x,3,5,-3,i
CC(/C=C/c1ccc(O)cc1)=N/O,-2,0,-5,x,2,-1,-3,i
O=C(Nc1ccccc1)N1CCC(c2nc(-c3ccc(S(=O)(=O)N4CCOCC4)cc3)no2)CC1,7,-11,-7,-32,-1,-12,-19,i
Cc1ccc(C2C=NN(c3ccccc3)C2=O)cc1 (centres undefined),x,6,x,-11,-10,-3,1,i
CC(C)(C)c1ccc(NC(=O)COC(=O)C2=COCCO2)cc1,-1,3,x,x,0,9,7,i
O=C(NC1CCCc2ccccc21)c1n[nH]c(=O)c2ccccc12 (centres undefined),28,-12,0,32,1,-7,-4,i
CCCNC(=O)C1(C)CCCN(C(=O)c2ccc(OC(F)F)cc2)C1 (centres undefined),x,x,-9,-10,x,6,3,x
Cc1ccc(C(=O)C(C)OC(=O)C2CCN(c3ccc(C(F)(F)F)cn3)CC2)cc1C (centres undefined),30,x,8,3,x,-1,-5,x
C=CC[C@H](CC(=O)N(CCO)Cc1ccccc1)C(=O)N[C@H](C)COC(=O)[C@@H](CC=C)Cc1ccc(F)cc1,x,x,4,-13,x,-3,-9,x
O=C(Nc1nnc(CCN2CCCCC2)s1)c1ccc(Cl)cc1Cl,-19,-2,x,-7,-9,0,2,i
C=CCNC(=O)CN(c1ccccc1OCC)S(=O)(=O)c1ccc(C)cc1,2,-2,-8,11,-5,14,5,x
CCC(C)C(NC(=O)c1ccc(Cl)cc1)C(=O)Nc1cccnc1 (centres undefined),-6,-5,-10,-18,18,-18,-18,i
N#Cc1cn(-c2ccccc2)nc1-c1ccccc1,7,-8,x,x,6,-8,-11,i
Clc1ccc(-c2cc(CN3CCOCC3)no2)cc1,-6,1,-10,-23,-8,0,-1,i
COCCn1cnc2c(c1=O)c1nc3ccccc3nc1n2/N=C/c1ccc(OC)c(OC)c1,2,-2,x,24,-10,11,3,i
O=C(O)C1(O)C[C@@H](O)C(O)[C@H](O)C1 (some centres undefined),x,x,-17,-4,x,-2,3,x
CSc1ccccc1OCc1cc(C(=O)NCCN2CCCc3ccccc32)no1,-2,32,x,14,15,-6,-5,i
CCOc1ccc(CN2CCNC(=O)C2CC(=O)NCc2csc(C(C)C)n2)cc1 (centres undefined),x,12,2,4,9,2,0,i
Cc1nc2nc3c(cn2n1)C(=O)CC(c1ccccc1)C3 (centres undefined),x,17,-13,26,16,-10,7,i
CN(C)C(=O)N1CCNCC1,x,-2,x,33,4,2,6,i
O=[N+]([O-])c1cccc(C2=NCCS2)c1,-26,0,-14,-6,-1,1,3,i
CN1C(=O)C(=O)/C(=C(/O)c2ccc(Br)cc2)C1c1cccc([N+](=O)[O-])c1 (centres undefined),-9,-19,-10,-8,18,-2,-1,i
Cc1ccc(Oc2nc3ccccn3c(=O)c2/C=C(\C#N)C(=O)Nc2c(C)n(C)n(-c3ccccc3)c2=O)c(C)c1,-2,15,7,14,-7,-4,-2,i
CCOC1(OCC)C(c2ccc(Cl)cc2)C(C#N)(C#N)C1(OCC)OCC (centres undefined),29,6,1,1,7,-17,-16,i
CCCCCC1CCC(C(=O)NCCN2CCOCC2)CC1 (centres undefined),30,-2,-9,5,1,2,2,i
Cc1ccc(CN2CCN(C3CCCC3)C(CCO)C2)s1 (centres undefined),13,3,-14,-2,-2,1,0,i
COc1cc(C2NC(=S)NC(C)=C2C(=O)c2ccccc2)ccc1O (centres undefined),0,-2,-28,1,13,0,5,i
Nc1c2c(=O)oc(-c3ccccc3)cc2nn1-c1ccccc1,31,1,-12,i,0,7,-4,i
COc1ccc(-c2ccnc3nc(N4CCN(c5ccccc5)CC4)nn23)cc1,-3,-10,-11,25,6,0,-5,i
CC(=O)Nc1ccc(Oc2cnccn2)cc1,12,-4,-5,-15,1,-11,-5,i
CCc1ccc(CNC(=O)CCC(=O)n2ncc3cc(C)ccc32)cc1,-9,-4,-16,19,-12,3,0,i
CC(=O)c1sc(-c2ccccc2)cc1NS(=O)(=O)c1ccccc1,-18,-8,-11,9,10,-1,0,i
Cc1ccc(CC(=O)NCc2ccc3c(c2)OCO3)cc1,2,1,-20,-54,1,2,-1,i
COc1ccc2c(c1)[nH]c1c(=O)n(/N=C/c3ccc(OC)c(CN4CCCCC4)c3)cnc12,1,-6,1,5,-1,9,3,i
CCOc1ccccc1N1C(=O)CC(N(O)c2ccccc2)C1=O (centres undefined),-9,-2,-24,30,0,1,5,i
O=C1CNC(=S)N1CCCc1ccccc1,-19,-4,x,x,3,-3,7,i
C=CCSc1nnc2c(n1)OC(c1c(C)[nH]n(-c3ccccc3)c1=O)Nc1ccccc1-2 (centres undefined),-10,u,-10,x,85*,3,2,i
Nc1nonc1-n1nnc(C(=O)N/N=C/c2ccc(O)cc2)c1CN1CCCCCC1,-14,x,-10,-56,x,-7,4,i
O=c1ncn(-c2cccc([N+](=O)[O-])c2)c2ccccc12,-19,x,-14,9,x,0,1,i
Cc1ccc(CNC(=O)C2CC(c3ccccc3C(F)(F)F)=NO2)o1 (centres undefined),-3,x,-21,-3,x,-5,2,i
CCCCCn1nc(C(=O)N(CC(C)C)c2c(N)n(CCCC)c(=O)[nH]c2=O)c2ccccc2c1=O,-6,x,12,1,x,-2,3,i
# (list continues)
SMILES,CSC inhib,eIF4H FP inh,Yeast UUG start,HIV Env fusion,PABP FP inh,MT1-MMP act inh,MT1-MMP act inh RFP,Rce1 inhib
Cc1cc(OCc2cc(C(=O)N(C)CCCN3CCOCC3)no2)cc(C)c1Cl,15,-7,-3,11,-6,10,-3,i
Cc1nn(-c2ccccc2)c(C)c1-c1cc(C(=O)N/N=C/c2cccnc2)[nH]n1,-16,-10,x,-39,-12,x,x,i
O=C(O)c1ccc(N/N=C/c2ccc(OC(=O)c3cccc(Cl)c3)cc2)cc1,5,37,-6,36,1,3,2,i
O=C(Nc1ccccc1)C1=C[C@H](c2csc3ccccc23)C[C@H](OCc2ccc(CO)cc2)O1,31,-5,-12,21,-16,8,-7,i
COc1ccc(NC(=O)C23CCC(C2)C(C)(C)C3=O)cc1 (centres undefined),6,-3,-15,-49,7,-1,0,i
COc1ccc(C(=O)Nc2ccc(S(=O)(=O)N3CCN(C)CC3)cc2)cc1,-15,x,x,-1,x,0,-2,i
Cc1ccc(Nc2nnns2)cc1,1,-8,x,x,-16,0,-1,i
CC(=O)Nc1ccc(S(=O)(=O)N[C@@H](C)C(=O)N(C)Cc2cccs2)cc1,x,x,-17,1,x,0,2,x
COCCCNS(=O)(=O)c1ccc(Oc2ncc(C(F)(F)F)cc2Cl)cc1,-11,-1,1,5,-13,-5,-5,i
COc1ccc(CSc2nnnn2C)cc1F,-4,16,-10,x,-6,4,3,i
COc1ccc(SC[C@H](Cc2ccccc2)N2CC[C@@H](NC(=O)OCc3ccccc3)CCC2=O)cc1,4,x,-16,-8,x,-1,-12,x
FC(F)C(F)(F)Oc1cccc(-c2n[nH]c(=S)n2Cc2ccccc2)c1,x,x,-23,-13,x,2,-8,x
Cc1ccc(-c2ccc(/C=C3\C(=O)ON=C3c3ccccc3)o2)c([N+](=O)[O-])c1,5,13,-8,i,11,-3,-5,i
CCOc1ccc(N(CC(=O)O)S(=O)(=O)c2ccc(F)cc2)cc1,7,-14,-8,x,13,-2,6,x
O=C(CCc1nnc(CCCCc2ccccc2)o1)NCCC1CCCCO1 (centres undefined),-15,-3,x,14,-2,1,4,i
COc1ccc(/C=N\NS(=O)(=O)c2ccc(C)cc2)cc1COc1ccccc1[N+](=O)[O-],34,-14,14,x,17,-8,-4,i
Cc1ccc(C)c(N2C(=O)CN=C2Nc2ccccc2Cl)c1,x,2,-19,x,18,2,-3,i

# Some of the compounds tested, so the mix of outcomes need not match the whole.
